Assay outcomes deposited in PubChem by several laboratories.
RecA intein inh – Mtb RecA intein splicing inhibition. P9WHJ3. cell-free RecA intein splicing, fluorescence. inhibition, %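 (about 9 µM by stock and volumes)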. 0.75% of 290,000 active. AID 2221; in the data active = inhibition above about 30%; inconclusive = no clear call, values can overlap the other calls;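 also: 0% = vehicle wells and 100% = reference inhibitor control wells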
Target sequence (P9WHJ3 whole entry, looked up): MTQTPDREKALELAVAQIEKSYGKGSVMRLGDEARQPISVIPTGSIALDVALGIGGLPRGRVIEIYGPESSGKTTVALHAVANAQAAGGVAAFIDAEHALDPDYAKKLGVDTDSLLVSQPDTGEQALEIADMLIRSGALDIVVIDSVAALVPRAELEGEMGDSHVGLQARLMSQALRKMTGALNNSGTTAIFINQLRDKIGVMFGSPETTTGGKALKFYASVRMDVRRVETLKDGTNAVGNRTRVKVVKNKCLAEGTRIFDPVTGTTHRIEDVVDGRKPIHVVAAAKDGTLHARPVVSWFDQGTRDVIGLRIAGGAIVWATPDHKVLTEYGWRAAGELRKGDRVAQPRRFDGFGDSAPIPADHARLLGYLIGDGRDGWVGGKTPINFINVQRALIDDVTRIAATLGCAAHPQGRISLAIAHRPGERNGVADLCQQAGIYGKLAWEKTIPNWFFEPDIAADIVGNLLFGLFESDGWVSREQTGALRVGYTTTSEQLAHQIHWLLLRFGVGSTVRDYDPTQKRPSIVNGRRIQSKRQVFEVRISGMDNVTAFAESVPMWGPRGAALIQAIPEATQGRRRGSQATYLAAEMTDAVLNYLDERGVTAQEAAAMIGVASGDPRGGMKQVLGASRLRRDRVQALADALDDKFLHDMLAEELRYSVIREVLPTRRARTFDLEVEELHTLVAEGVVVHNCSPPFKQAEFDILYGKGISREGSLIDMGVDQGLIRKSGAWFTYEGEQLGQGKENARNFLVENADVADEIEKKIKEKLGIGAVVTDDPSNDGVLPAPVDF
Mtb growth – M. tuberculosis H37Rv growth inhibitors, H37Rv strain (AID 1626); M. tuberculosis H37Rv growth inhibition; higher % means a stronger effect; inhibition, % at 10 µM; hits with a dose series show IC50 in µM; 0.95% of 220,000 active;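 active = confirmed in a dose series; inconclusive = inhibition above 80% but not taken into the dose series; inactive = below 80% or under 30% at every dose of the series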;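 also: bacteria incubated seven days before Alamar blue readout; 0% = bacteria only wells and 100% = bacteria with antibiotic wells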
Mtb betalactam – beta-lactam sensitization of Mtb H37Rv; M. tuberculosis H37Rv growth with meropenem, percent inhibition; hits of this screen are not shown here; inhibition, % at 25 µM; 0.27% of 330,000 active; AID 434955;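 active = about 74% or more and at least 40 points above the plate without the antibiotic, then above 30% in a dose series; inconclusive = first-round hits that could not be retested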;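 also: growth measured after seven days incubation then overnight dye step; 0% = bacteria only wells and 100% = bacteria with antibiotic; twin plates without the antibiotic show which effects depend on it; some results filed as inactive read as strong as hits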
Arbovirus anti – antivirals against arbovirus infection; arbovirus infection cell-based antiviral screen; 0.37% of 200,000 active; inhibition, % at 10 µM;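 active = inhibition from about 30%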;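 also: bluetongue infection of BSR cells; cell survival read as ATP light after 72 h; 0% = infected wells without compound and 100% = uninfected wells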
YopH inh – YopH (Yersinia) phosphatase inhibition | AID 898 | inhibition, %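 (about 10 µM by stock and volumes)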 | fluorescence Ex485/Em525 | 0.16% of 140,000 active;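 active = inhibition of 50% or more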;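 also: controls were vehicle for no effect and minimum signal wells for full effect; inactives centre near -20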
Arbovirus anti repeat – recorded beside Arbovirus anti, whose call it bears; inhibition, %; measured here: 10K subset replicate screen; many hits read low in the repeat;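 first of two repeat runs on a subset; 0% = infected and 100% = uninfected wells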
Starred values were filed as active, the others as inactive; ? = inconclusive; · = not tested or not shown. A portion of the library (hit frequency here may not be typical).

SMILES	RecA intein inh	Mtb growth	Mtb betalactam	Arbovirus anti	YopH inh	others
O=C(N1CCCCCC1)N1CCN(S(=O)(=O)N2CCOCC2)CC1	1.6	-1.1%	-12.6	10.7	-20.3
COc1ccc(CCNC(=O)c2ccc3c(c2)OCCO3)cc1	-1.2	21.1%	-2.0	7.4	·
COCCCNC(=O)COc1ccc(Br)cc1Cl	-0.5	-3.1%	5.8	-6.9	-23.8
CC1CCCc2sc3nc(NCc4ccco4)n4ncnc4c3c21 (stereo unspecified)	13.7	9.8%	71.3	-3.6	-25.2
O=C/C(=C\Nc1ccc(Cl)cn1)c1nc2ccccc2o1	-2.0	-0.1%	1.5	21.3	-17.7
CCN1C(=O)[C@@H]2[C@@H](c3ccc(-c4ccc(OC)cc4)cc3)N3CCC[C@@]3(C(=O)OC)[C@@H]2C1=O	0.7	·	-4.7	·	·
CC(/C=N/NC(=O)c1cnccn1)=C\c1ccco1	4.5	0.2%	3.0	·	·
Cc1cccc(C)c1NC(=O)C1(N(Cc2ccco2)C(=O)CC2NC(=O)NC2=O)CCCCC1 (stereo unspecified)	0.8	-3.2%	-3.2	7.9	17.0	Arbovirus anti repeat=-1.4
NC(=O)COC(=O)CCSc1ccc(Cl)cc1	·	6.0%	-5.6	-2.7	·
O=c1[nH]c2cc3c(cc2cc1C(c1nnnn1Cc1ccccc1)N1CCCc2ccccc21)OCO3 (stereo unspecified)	0.8	21.7%	-9.5	-0.6	-9.0
O=C(O)CCNC(=O)C12CC3CC(CC(C3)C1)C2	-1.8	-4.3%	-4.3	-3.0	·
COc1ccc(N(CC(=O)Nc2ccc3c(c2)OCO3)S(=O)(=O)c2c(C)nn(C)c2C)cc1	0.5	-0.6%	-3.0	-9.7	-27.3	Arbovirus anti repeat=-3.7

Next part; it opens with the 2 that closed the last part.
SMILES	RecA intein inh	Mtb growth	Mtb betalactam	Arbovirus anti	YopH inh	others
O=C(O)CCNC(=O)C12CC3CC(CC(C3)C1)C2	-1.8	-4.3%	-4.3	-3.0	·
COc1ccc(N(CC(=O)Nc2ccc3c(c2)OCO3)S(=O)(=O)c2c(C)nn(C)c2C)cc1	0.5	-0.6%	-3.0	-9.7	-27.3	Arbovirus anti repeat=-3.7
O=C(N/N=C/C=C/c1ccccc1[N+](=O)[O-])c1ccncc1	-0.7	?	97.8	·	·
O=C(CCc1ccccc1)Nc1ccc2ccccc2n1	0.4	4.5%	-7.7	-5.1	·
CSc1ccccc1C(=O)NCCCOC(C)C	0.4	-0.3%	-7.0	-4.6	-0.7
CCOC(=O)N1CCC(NC(=O)c2cnn3cccnc23)CC1	0.4	0.1%	12.0	-1.3	-14.7
Cn1cc(CN2CCCC(C(=O)c3cccs3)C2)c(-c2cccc(Cl)c2)n1 (stereo unspecified)	1.3	0.1%	-12.0	-15.3	·
CNc1nc(-c2ccc3c(c2)CCN3C(=O)CC(C)(C)C)c(C)s1	-0.7	-4.7%	7.2	-1.8	·
CC1(C)C(=O)OC(/C=C\c2ccccc2)C(C)(C)C1=O (stereo unspecified)	-6.0	3.7%	-9.1	0.2	·
Cc1nc2ccccc2n1C1CCN(CC(=O)NCc2ccc(F)cc2)CC1	-1.7	-6.6%	-5.7	-1.3	-32.0
CCCCCCCCCCCCCCCC[n+]1ccc(C(N)=O)cc1	·	65.4%	71.8	-37.9	-7.0
COc1ccc(NC(=O)NN2CCOCC2)cc1OC	0.2	-5.2%	3.8	5.2	·
NS(=O)(=O)c1cccn1-c1ncc(C(F)(F)F)cc1Cl	-0.3	-11.0%	-3.0	9.6	2.9
O=S(=O)(O)C1CCNCC1	·	·	·	9.3	-17.7

Ordered by molecular weight (low to high): 4 of the compounds above
SMILES	RecA intein inh	Mtb growth	Mtb betalactam	Arbovirus anti	YopH inh	others
O=C(O)CCNC(=O)C12CC3CC(CC(C3)C1)C2	-1.8	-4.3%	-4.3	-3.0	·
CC1(C)C(=O)OC(/C=C\c2ccccc2)C(C)(C)C1=O (stereo unspecified)	-6.0	3.7%	-9.1	0.2	·
CCCCCCCCCCCCCCCC[n+]1ccc(C(N)=O)cc1	·	65.4%	71.8	-37.9	-7.0
O=C(N1CCCCCC1)N1CCN(S(=O)(=O)N2CCOCC2)CC1	1.6	-1.1%	-12.6	10.7	-20.3

(cont.)
SMILES	RecA intein inh	Mtb growth	Mtb betalactam	Arbovirus anti	YopH inh	others
COc1cc(COc2ccc3c(C)c(Cc4ccccc4)c(=O)oc3c2)cc(OC)c1OC	1.7	-8.5%	3.0	-12.2	-21.5
CSc1ccccc1NC(=O)CN(C)CC(=O)Nc1c(F)cccc1F	2.9	-0.4%	-0.8	-0.6	-46.0
COc1cc(C(=O)Nc2ccc(Cl)c([N+](=O)[O-])c2)cc(OC)c1OC	3.9	4.7%	-5.2	-13.1	·
O=C(O)c1csc(N/N=C/c2ccc(Br)cc2)n1	-1.5	-2.5%	·	46.1*	·
COc1ccc(OC)c(NC(=O)CCN2CC(C)OC(C)C2)c1 (stereo unspecified)	0.5	-5.1%	1.4	2.2	-11.6
C=CCSC1=Nc2cc(OC)c(OC)cc2C2=NC(=O)CN12	·	2.2%	·	-5.5	·
CC(=O)Nc1ccc(C(=O)CS(=O)(=O)c2ccc(C)cc2)cc1	-0.2	5.3%	-3.8	1.9	-9.2
CC(C)C[C@H](NC(=O)c1[nH]cnc1C(=O)Nc1ccc(Cl)cc1)C(=O)OC(C)(C)C	0.0	9.9%	-12.0	·	·
COc1ccccc1CNC(=O)C1COc2ccccc2O1 (stereo unspecified)	3.3	-2.9%	-4.1	0.1	-2.8	Arbovirus anti repeat=5.4
CCOC(=O)N1C/C(=C\c2ccccc2)C(=O)/C(=C/c2ccccc2)C1	11.6	2.11µM*	·	·	·
O=C(Cc1ccccc1)NC1CCN(C(=O)c2ccc([N+](=O)[O-])cc2)CC1	-1.7	·	-6.7	·	·
CCN1CCN(CC(=O)N2N=C(c3cccs3)CC2c2ccc(OC)c(OC)c2)C(=O)C1=O (stereo unspecified)	1.0	6.5%	8.2	4.7	·
CC(C)C(NC(=O)c1ccccc1)C(=O)NCc1ccccn1 (stereo unspecified)	-1.3	-4.7%	-1.2	2.2	28.3
CC1(C)CN=C(Nc2ccccc2C(F)(F)F)S1	1.8	-4.0%	2.7	-1.3	-31.9
Cc1ccnc(NC(=O)CCC(=O)N(CC(=O)NC(C)(C)C)c2ccc3c(c2)OCO3)c1	0.9	·	-5.6	·	·
CCC(=O)N1C(=O)CCN(C(C)=O)c2ccccc21	-0.5	-6.7%	-8.1	-1.6	1.9
Cc1cc(-c2ccccc2)[nH]c(=O)c1S(=O)(=O)c1ccccc1	2.5	-3.6%	-13.0	10.4	-34.1
CCC(CC)C(=O)NCCc1cc2c(C)ccc(C)c2[nH]c1=O	-0.9	·	12.7	2.2	·
Cc1cc(=O)c2ccc3ccccc3c2[nH]1	0.2	·	?	11.6	-4.0
Cc1ccc(-c2nnc(NC(=O)C3=COCCO3)o2)c(C)c1	-1.0	·	82.3	·	·
O=C(CNC(=S)N(Cc1ccccc1F)C1CCCCC1)NCCN1CCOCC1	-3.2	3.3%	-3.3	-8.8	·
CCc1nc2oc3ccccc3c(=O)c2c(=O)n1Cc1ccc(OC)cc1	1.0	-17.4%	-7.8	0.1	-49.7
Cc1cc([N+](=O)[O-])ccc1NCc1ccco1	2.7	-6.4%	5.1	8.7	·
O=C(NC1(C(F)(F)F)C(=O)Nc2c1c(=O)[nH]c(=O)n2Cc1ccco1)C1CCCCC1 (stereo unspecified)	2.0	-12.2%	-6.8	9.6	9.8

Of the compounds above, 2 have a COOH group.
SMILES	RecA intein inh	Mtb growth	Mtb betalactam	Arbovirus anti	YopH inh	others
O=C(O)CCNC(=O)C12CC3CC(CC(C3)C1)C2	-1.8	-4.3%	-4.3	-3.0	·
O=C(O)c1csc(N/N=C/c2ccc(Br)cc2)n1	-1.5	-2.5%	·	46.1*	·

Later entries:
SMILES	RecA intein inh	Mtb growth	Mtb betalactam	Arbovirus anti	YopH inh	others
COc1ccc(C(=O)NNC(=S)Nc2ccccc2)cc1	1.0	-5.5%	6.4	3.0	·
CCC(Oc1ccccc1)C(=O)Nc1ccccc1C(=O)N1CCCCC1 (stereo unspecified)	19.3	·	1.5	·	·
CCOC(=O)C1CCCN(C(=O)c2ccc3c(c2)N(C)C(=O)/C(=C/c2ccccc2Cl)S3)C1 (stereo unspecified)	4.2	·	6.7	·	·
CCn1c(COc2ccccc2C)nnc1SCC(=O)N1CCC(C)CC1	3.1	5.5%	?	-0.8	-27.4
CCOC(=O)c1cc(NC(=O)CNCC(c2ccccc2)N(C)C)cc(C(=O)OCC)c1 (stereo unspecified)	-7.2	·	-2.5	·	·
Cc1cc(C)cc(NC(=O)CCc2nc3sc4c(c3c(=O)[nH]2)CCCC4)c1	-2.0	·	-9.9	·	·
CC(=O)Nc1cc(Cl)ccc1OS(=O)(=O)c1ccc(C)cc1	0.7	8.0%	10.8	-8.1	-5.6
CC12CCC(C(=O)N(c3ccccn3)c3ccccn3)(OC1=O)C2(C)C (stereo unspecified)	-3.3	2.4%	2.0	-1.9	-33.7
Cc1cc(N(C)Cc2ccccc2)nc(-c2ccccc2)n1	14.5	-0.6%	1.6	11.2	-13.5
COC(=O)C1C(=O)C2=C(CC1C)NC(=O)CC2c1cccc(C)c1 (stereo unspecified)	-1.0	-5.0%	0.4	4.4	-45.0
O=C(Nc1ccccc1)N(c1ccccc1)C1C=CS(=O)(=O)C1 (stereo unspecified)	0.8	-2.4%	-7.7	·	·
COc1ccc(/C=C(\NC(=O)c2ccccc2)C(=O)NNC(=O)CCN2CCOCC2)cc1	·	-19.8%	-4.7	-1.4	·
Cc1cccc(C)c1NC(=O)N1CCN(C2CCCCC2)CC1	-1.8	2.9%	-3.7	8.7	-34.7
COc1cccc(-c2nc(CS(=O)CC(=O)NC3CCCC3)c(C)o2)c1 (stereo unspecified)	-4.8	-4.7%	0.3	-0.6	·	Arbovirus anti repeat=2.9
Cc1ccccc1Oc1ncnc2sccc12	-0.6	-4.4%	-0.4	5.7	-11.7
Oc1ccc(N=Nc2n[nH]c(-c3ccccc3)n2)cc1	0.2	29.3%	9.0	-17.3	0.8
CCc1ccc(-c2nnn(Cc3nc4ccccc4s3)n2)cc1	1.2	-7.6%	13.4	6.6	-50.6
CCCCN(C(=O)c1[nH]c(C)c(C(C)=O)c1C)c1c(N)n(CCCC)c(=O)[nH]c1=O	-1.5	·	-6.1	·	·
Cc1oc(-c2ccccc2)cc1C(=O)Nc1cccc(/C=C/C(=O)O)c1	0.4	6.4%	·	11.9	·
Cc1c(-c2nc(N)nc(Nc3ccccc3F)n2)oc2ccccc12	-1.2	-5.8%	56.3	-0.6	-59.0
CCN(CC)S(=O)(=O)c1cccc(-c2nnc(SCC(N)=O)n2C)c1	2.0	0.6%	0.2	0.8	·
COCC(C)NS(=O)(=O)c1ccc(OC)cc1 (stereo unspecified)	-1.7	-3.4%	8.0	2.7	-24.7
O=C(c1cc(S(=O)(=O)N2CCN(c3ccccc3)CC2)ccc1Cl)N1CCCC(C(F)(F)F)C1 (stereo unspecified)	2.7	·	-5.6	·	·
Cn1c(=O)c2ncn(CC(=O)NCCOc3ccc(C(C)(C)C)cc3)c2n(C)c1=O	1.9	1.0%	·	0.4	15.2
CCOC(=O)c1cc(C)n(CCc2cnc[nH]2)c1C	-0.8	-8.6%	-3.7	7.9	-37.8
COc1ccc(-n2c(-c3ccccc3)cc3c2CCCC3=O)cc1	·	4.0%	3.9	-0.2	-20.4
Nn1c(SC/C=C/c2ccccc2)nnc1-c1ccco1	-4.3	·	17.1	-2.2	12.8
O=C(NCc1ccco1)C(=O)c1cn(CC(=O)N2CCCCC2)c2ccccc12	-5.0	·	8.9	11.8	·
